RN4220 kill – kills Staphylococcus aureus RN4220; AID 1259311; inhibition, % (no concentration beside the values); hit rate 0.33% among 330,000; S. aureus RN4220 growth, OD600, 16 h;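 active means z-score of -3 or lower and OD600 up to 0.18 on both plates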;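 further: plate controls were untreated cells for no effect and reference antibiotic for full effect; stock transfer was 100 nL into about 80 µL; one replicate is shown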
Mtb hypoxia rep – reduces hypoxia-regulated biosensor signal in M. tuberculosis. M. tuberculosis hypoxia-regulated fluorescent reporter, fluorescence. hit rate 0.1% among 300,000. fluorescence inhibition, % (no concentration beside the values);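 active means 35 to 45% if threefold the growth effect, above 45% if 1.5-fold the growth effect; inactive means the rest, general growth blockers included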;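 further: wells of about 50 µL received 100 nL stock; 0% = vehicle wells and 100% = reference inhibitor wells; whole bacteria with a GFP reporter of the hypoxia response; strong numbers were not always called active; many hits fall short of the cut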
Sa ugtP lethal – kills S. aureus RN4220 lacking UgtP | S. aureus RN4220 ugtP deletion, OD600 growth, 16 h; some inactives read as strong as hits | growth inhibition, % (concentration not given with the values) | hit rate 0.54% among 330,000 | AID 1259309;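 active means z-score under -3 and OD600 up to 0.15 on both plates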;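 further: plate controls were untreated wells for no effect and antibiotic for full effect; wells of about 80 µL received 100 nL stock; the first replicate is given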
BJeLR lethal – kills HRASV12-expressing BJeLR cells. BJeLR (HRASV12) viability, CellTiter-Glo ATP luminescence, 48 h; reference of the scale not given here. inhibition, % (no concentration beside the values). hit rate 0.17% among 300,000;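 active means replicate mean above 50%; inconclusive means above 50% but judged a plate artefact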;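 further: 50 nL library stock added to about 25 µL; numbers are from one replicate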
PrP 5UTR inh – inhibition of PrP 5' UTR reporter expression; cell-based PrP 5' UTR mRNA reporter, plate reader; inhibition, % (concentration not given with the values); hit rate 0.35% among 340,000; AID 488862;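 active means every replicate at 50% or more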;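 further: 0 = median of the neutral control wells; tested in H4 reporter cells; numbers are from one replicate; inactives centre near -14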
Autofluor counter – flagged as autofluorescent in microsphere protease counterscreen. compound autofluorescence counterscreen, microsphere flow cytometry; active compounds read high. AID 624483. fluorescence intensity (no concentration beside the values). hit rate 3.1% among 360,000;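 active means at least 3 SD above the mean of all compounds, about 16000 in these data; inconclusive means too few beads counted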;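 further: 100 nL of 1 mM stock went into each well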
Mtb hypoxia rep growth – second read-out of Mtb hypoxia rep, no call of its own (marks repeat the call); growth inhibition, %; measured here: M. tuberculosis growth (absorbance);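 0% = vehicle and 100% = reference antibiotic; read after six days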
* hit, by the source's call; ? = inconclusive; . = no result given; & = joins results of further samples. No enrichment for hits (roughly 4% active in at least one column).

The opening 3 entries (preview)
SMILES | RN4220 kill | Mtb hypoxia rep | Mtb hypoxia rep growth | Sa ugtP lethal | BJeLR lethal | PrP 5UTR inh | Autofluor counter
COC(=O)[C@@H](NC(=O)NCc1ccccc1Cl)C(C)C | . | . | . | . | -1.1 | -12.0 | 3342
COc1nc(-c2ccccc2)ccc1-c1noc(-c2cccs2)n1 | 8.4 | 9.9 | 7.8 | -5.1 | 0.6 | -69.3 | 4518
CC1CC(O)(Cc2ccccc2)C(C)CN1C (centres undefined) | -10.6 | 16.8 | 4.3 | -4.6 | 3.3 | -17.1 | 3626

Results, repeating the preview:
SMILES | RN4220 kill | Mtb hypoxia rep | Mtb hypoxia rep growth | Sa ugtP lethal | BJeLR lethal | PrP 5UTR inh | Autofluor counter
COC(=O)[C@@H](NC(=O)NCc1ccccc1Cl)C(C)C | . | . | . | . | -1.1 | -12.0 | 3342
COc1nc(-c2ccccc2)ccc1-c1noc(-c2cccs2)n1 | 8.4 | 9.9 | 7.8 | -5.1 | 0.6 | -69.3 | 4518
CC1CC(O)(Cc2ccccc2)C(C)CN1C (centres undefined) | -10.6 | 16.8 | 4.3 | -4.6 | 3.3 | -17.1 | 3626
Cc1cc(N2C(=O)c3ccc(C(=O)Nc4ccc(CC(=O)O)cc4)cc3C2=O)no1 | 0.6 | 9.7 | 2.4 | -2.7 | -4.6 | -10.6 | 6111
CCn1cnc2cc(NCc3ccc(Br)cc3)ccc21 | 4.8 | 4.6 | 12.8 | 0.9 | -14.1 | . | .
Cc1cc(C)c2nc(N3CCC(C(=O)NCCN4CCOCC4)CC3)sc2c1 | 3.2 | 1.5 | 16.4 | -2.1 | 4.3 | -6.8 | 5683
O=C(COC(=O)c1cnc(Cl)c(Cl)c1)NCc1ccc2c(c1)OCO2 | 1.2 | 7.8 | 13.8 | 3.4 | 7.1 | -8.7 | 9848
Cc1ccc2c(c1)CC1(CN2C)C(=O)NC(=O)N(CCC2=CCCCC2)C1=O (centres undefined) | 10.6 | . | . | -7.8 | -20.0 | -9.2 | 2376
Cc1cc(C(=O)Nc2cccc3ccccc23)n(-c2ccccc2)n1 | 3.2 | -3.9 | -1.7 | 12.6 | -8.9 | -22.6 | 2189
O=C(O)CN=C(NS(=O)(=O)c1ccccc1)c1ccccc1 | 1.8 | -1.6 | -7.7 | 2.5 | -11.8 | -4.2 | 3307
CCN1C(N(C)CCc2cccs2)=NC(c2ccccc2)C(C(=O)OC)=C1C (centres undefined) | 4.1 | 3.4 | 5.8 | -3.0 | . | . | .
O=C(COc1ccc2ccc(=O)oc2c1)Nc1cccc(S(=O)(=O)N2CCCCC2)c1 | 4.1 | 14.2 | 2.9 | 2.3 | . | -10.9 | .
COc1ccc(C)cc1S(=O)(=O)N1CCN(Cc2ccccc2)CC1 | 2.2 | 6.8 | -5.7 | 0.5 | 3.3 | -13.3 | 6079
Cc1cnc(C(=O)OCC(=O)NCc2ccc3c(c2)OCO3)cn1 | 5.9 | 4.0 | 3.6 | -1.4 | -4.7 | -5.6 | 4563
Cc1cc(=O)oc2cc(NC(=O)C(C)Oc3cccc(Cl)c3)ccc12 (centres undefined) | 4.6 | 3.0 | 2.9 | 5.6 | -6.2 | -15.0 | 6275
COc1ccc(C=CC(C)=NNC(=O)c2ccncc2)cc1 | 2.1 | . | . | 1.0 | . | -23.2 | 3819
Cc1nn(-c2ccccc2)c(C)c1C(=O)OCC(=O)Nc1ccccc1 | -0.3 | 5.2 | 4.4 | -6.9 | . | -51.0 | 3988
CNC(=O)c1ccccc1Sc1cccc2cccc(C(=O)O)c12 | 2.4 | 1.3 | -2.0 | 2.4 | 1.8 | -6.4 | 3851
COc1ccccc1N=C1SC(C(=O)Nc2cccc(Cl)c2Cl)C(N)=C1C(N)=O (centres undefined) | -4.9 | -4.1 | 7.6 | 8.7 | 39.5 | -2.6 | 6726
CC(C)NS(=O)(=O)c1ccc(CCC(=O)NCc2ccco2)cc1 | 7.7 | 10.6 | 17.2 | 3.0 | -1.1 | -21.5 | 4125
Cc1cc(NC(=O)C2CC(=O)N(c3ccccc3)C2)no1 (centres undefined) | 5.8 | 7.1 | 1.4 | 6.0 | -5.7 | -12.7 | 2556
O=C(Nc1ccccc1SCC1CSc2nc3ccccc3c(=O)n21)c1ccccc1 (centres undefined) | -1.8 | . | . | 7.3 | 4.7 | -21.0 | 2408
COCCN(C(=O)COC(=O)c1ccc(Cl)s1)c1c(N)n(Cc2ccccc2)c(=O)[nH]c1=O | 3.3 | 10.3 | -4.1 | 9.4 | -1.8 | -19.7 | ?
NC(=S)N/N=C/c1ccccc1OC(=O)/C=C/c1ccccc1 | . | . | . | . | 6.6 | 10.1 | 3979
COc1ccc(OC)c(C(C)NC(=O)c2ccco2)c1 (centres undefined) | 3.4 | 8.3 | 2.4 | 5.0 | 7.4 | -25.2 | 7893
COCCN(C(=O)c1ccccc1OC1CCN(S(C)(=O)=O)CC1)C(C)C | 2.0 | 5.8 | 4.2 | -3.2 | 11.8 | -8.5 | 4517
CC(NC(=O)c1nc[nH]c1C(=O)N(C)Cc1ccccc1)c1ccccc1 (centres undefined) | 9.3&4.7 | 21.2&-6.9 | 12.8&4.9 | 6.7&-0.4 | . | . | .
Cn1c(=O)c2cc(S(=O)(=O)NCCC(=O)NCCc3ccc(Cl)cc3)ccc2n(C)c1=O | -0.1 | 3.3 | 6.4 | 1.5 | -13.2 | -1.5 | 17176*
CCNC(=O)/C(C#N)=C/c1c(N2CCN(c3cccc(Cl)c3)CC2)nc2c(C)cccn2c1=O | 1.0 | -0.5 | 2.7 | -4.7 | -1.4 | -4.7 | 3850
O=c1[nH]c2ccc(Cl)cc2c(-c2ccccc2)c1SC(=S)N1CCOCC1 | 11.6 | 4.6 | 4.3 | 2.5 | -3.2 | -20.9 | 2746
O=C1C2C3CCC(O3)C2C(=O)N1CCO (centres undefined) | 4.7 | 7.4 | 7.1 | 4.9 | -4.0 | -0.9 | 3981
COc1cccc(-c2cc(C(=O)NCc3ccco3)c3ccccc3n2)c1 | -0.4 | 7.5 | 11.9 | 1.3 | -4.9 | -10.7 | 4192
Cc1nnc(SC(C)C(=O)NC2CCCCC2C)s1 (centres undefined) | 5.2 | -0.5 | -9.8 | 8.7 | 3.9 | -38.3 | 6759
Cc1cccn2c(=O)c(C(=O)NC3CCCCC3)c(O)nc12 | 1.9 | 1.3 | 11.8 | -5.7 | 7.2 | -15.7 | 5476
COc1ccc(CCn2c(NCCCN3CCOCC3)nc3c2c(=O)[nH]c(=O)n3C)cc1 | 1.7 | . | . | 4.9 | -1.4 | -10.6 | 4182
COc1cccc(N2C(CC(=O)O)c3ccccc3S2(=O)=O)c1 (centres undefined) | 2.2 | -2.5 | 3.5 | -2.1 | . | . | .

The list goes on; the last three above are carried over.
SMILES | RN4220 kill | Mtb hypoxia rep | Mtb hypoxia rep growth | Sa ugtP lethal | BJeLR lethal | PrP 5UTR inh | Autofluor counter
Cc1cccn2c(=O)c(C(=O)NC3CCCCC3)c(O)nc12 | 1.9 | 1.3 | 11.8 | -5.7 | 7.2 | -15.7 | 5476
COc1ccc(CCn2c(NCCCN3CCOCC3)nc3c2c(=O)[nH]c(=O)n3C)cc1 | 1.7 | . | . | 4.9 | -1.4 | -10.6 | 4182
COc1cccc(N2C(CC(=O)O)c3ccccc3S2(=O)=O)c1 (centres undefined) | 2.2 | -2.5 | 3.5 | -2.1 | . | . | .
Cc1cccc(C(CC(=O)NCc2ccco2)c2ccccc2)c1O (centres undefined) | 9.2 | 10.8 | 8.1 | 0.5 | -1.2 | -27.0 | 7715
CN(CC(=O)NCc1ccco1)CC(=O)Nc1c(Cl)cccc1Cl | -3.4 | -5.1 | -8.8 | 1.3 | . | -5.9 | 3379
Cc1nnsc1S(=O)(=O)Cc1ccccc1Cl | 4.9 | 5.3 | -1.3 | -3.6 | -3.8 | -13.8 | 22199*
O=C(OCC(=O)N1CCCCCC1)c1ccc(Cl)c(S(=O)(=O)N2CCCC2)c1 | 2.9 | 10.2 | 6.0 | -0.2 | -0.5 | -24.8 | 5096
O=C(CSc1nnc(NC(=O)c2ccc(F)cc2F)s1)NC1CC1 | -5.1 | 2.2 | 5.6 | 10.5 | 2.0 | -30.7 | 3575
O=C(CSc1cn[nH]n1)Nc1cccc(C(=O)O)c1 | 0.0 | -7.2 | -0.8 | 2.4 | 2.5 | -7.5 | 6101
CC1(C)CC(=O)C=C(NCc2cccnc2)C1 | -1.7 | . | . | 6.6 | 1.2 | -2.2 | 4644
O=C(O)c1ccc2c(c1)C(c1ccccc1)OC2=O (centres undefined) | 2.1 | 0.9 | -4.1 | 1.6 | -7.8 | -14.5 | 16408*
O=c1[nH]c(CSc2nnnn2-c2ccccc2)nc2ccccc12 | 3.9 | 12.5 | 8.4 | 14.0 | 3.5 | -4.5 | 2232
CC(=O)Oc1ccc(/C=N/NS(=O)(=O)c2ccccc2)cc1 | . | . | . | . | 0.4 | -52.5 | 4828
O=C(CNC(=O)c1ccccn1)N=Nc1c(O)[nH]c2ccccc12 | 3.2 | 0.3 | -1.3 | -12.9 | 7.9 | -20.8 | 3912
CC1CN(CC(O)COC(c2ccccc2)c2ccccc2)CC(C)O1 (centres undefined) | 2.0 | -2.7 | -7.2 | 5.2 | -6.6 | -20.2 | 6975
CN1CC=C2C(C#N)=C(N)C(C#N)(C#N)C(CCc3ccccc3)C2C1 (centres undefined) | -0.5 | 12.9 | 5.0 | -2.7 | -5.7 | -23.9 | 4085
COCCn1c(SCC(=O)NC(=O)NC(C)(C)C)nc2ccccc21 | 7.5 | 5.1 | 4.2 | -12.1 | -0.9 | -27.9 | 10675
O=S(=O)(c1ccc(Cl)cc1)N1CCN(C(=S)NCC2CCCO2)CC1 (centres undefined) | 4.8 | 4.0 | 6.3 | 11.8 | 2.9 | -11.0 | 5896
CN(C)CCn1cnc2c(c1=N)C(c1ccccc1)c1ccc3ccccc3c1O2 (centres undefined) | -1.1 | 14.5 | 9.4 | -2.6 | 24.1 | 3.2 | 3960
COC(=O)[C@H](Cc1ccccc1)N1C/C=C\COc2c(Cl)cc(Cl)cc2S1(=O)=O | 8.0 | 2.9 | 2.0 | 6.4 | . | -13.1 | 3526
CCn1c(C(C#N)/C(=N\S(=O)(=O)c2cccs2)c2ccccc2)nc2ccccc21 (centres undefined) | . | . | . | . | -0.3 | -6.7 | 7104
O=C(COC(=O)CC1CC2CCC1C2)NCc1ccc(Cl)cc1 (centres undefined) | -1.0 | 0.1 | 4.3 | 1.6 | . | -4.0 | 4024
Cc1cccc(NC(=O)c2c(O)c3ccccc3n(C)c2=O)c1 | -6.5 | 1.9 | 2.0 | 19.1 | -12.9 | -56.6 | 4235
Cc1ccc(C)c2sc(NC(=O)c3ccc(N4CCCCC4)c([N+](=O)[O-])c3)nc12 | -8.2 | 9.3 | 0.3 | -5.2 | 0.8 | -34.2 | 8171
COc1cc([N+](=O)[O-])cc(/C=N/NC(=O)Cn2nc(C)cc2C)c1O | . | . | . | . | -0.5 | -23.7 | 4093
CC1COC(=O)C(CC(=O)OC(C)(C)C)CC=CCC(CC(=O)NCCO)C(=O)N1 (centres undefined) | 8.0&4.0&4.2&4.0 | 9.5&16.8&14.1&21.7 | 5.4&4.5&14.6&7.2 | 2.9&0.3&4.0&1.2 | . | . | .
COc1ccc(NC(=O)C2CCC(CNC(=O)[C@@H]3Cc4ccccc4CN3)CC2)cc1 (some centres undefined) | -4.2 | -7.1 | -7.8 | -5.0 | 3.9 | -21.5 | 6108
CN(CCO)c1cc(NCCCN2CCC(Cc3ccccc3)CC2)c2nonc2c1[N+](=O)[O-] | 7.8 | 15.0 | 2.0 | 1.6 | -9.0 | -18.6 | 4473
O=C(c1ccc(-c2ccc([N+](=O)[O-])cc2)o1)N1CCCC(C(F)(F)F)C1 (centres undefined) | 3.5 | 9.3 | 2.9 | -4.1 | -7.7 | -30.3 | ?
CCNS(=O)(=O)c1ccc(CCC(=O)NCc2ccncc2)cc1 | 4.4 | 2.5 | -7.8 | 7.8 | -6.5 | -23.3 | .
CCC(O)c1nc2ccccc2n1CCc1ccccc1 (centres undefined) | 4.5 | -2.3 | -10.1 | -0.7 | -1.7 | -13.4 | 4120
O=c1oc(-c2cccs2)nc2sc3c(c12)CCC3 | 6.1 | 15.1 | 2.7 | 4.4 | -6.3 | -21.4 | 4400
